# Source: PubChem
# TCR act = activators of T cell receptors; Potency, µM (series often up to 9.22 µM), for the others: at the highest dose activation of IL-2 secretion, usual class: activators; 330,000 tested, under 10 active; primary human leukocytes, anti-CD3, IL-2 HTRF, 48 h; further: % of control where 0% means no effect
#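 Primary human leukocytes were stimulated with a-CD3 beads plus compounds for 48 hr without co-stimulation; secreted IL-2 was quantified by HTRF using a-IL-2-K (europium cryptate) and a-IL-2-d2, excited at 320nm with acceptor emission read at 665nm.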
# BCR signal inh = inhibitors of chronic active B-cell receptor signaling; ABC-DLBCL IkBa-CBG/CBR reporter, luminescence ratio, 4 h; Potency, µM (titrated, usually from 46.1 µM), inactives show at the top dose ratio change, negative = lower green/red ratio, hits mostly inhibitors; 340,000 tested, 0.05% active; AID 493014; active means well fitted inhibition curve with a large enough effect in the signal ratio, with a control signal flat, not every such curve was filed as active; inconclusive means small, poorly fitted or top-dose-only effect, or effect the other way, or a change in a side signal; the % refers to the signal ratio;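 further: potency means the concentration at half of the fitted maximal effect; plate controls were basal doxycycline-induced cells for no effect and cells given 10 µM MG132 for full effect; MG132 reads +100%, hits lower the ratio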
#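 TMD8 ABC-DLBCL cells carrying doxycycline-inducible green luciferase fused to IkappaBalpha plus unfused red luciferase were exposed to compounds (up to 46 uM) for 4 hrs at 37C. Activity came from the overlap-corrected green/red luminescence ratio.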
# Giardia kill = Giardia lamblia killing. Giardia lamblia trophozoite viability. activity change, % at 7.66 µM, hits read low. 340,000 tested, 0.15% active; in the data active means activity change below about -80%; inconclusive means between about -30% and that limit;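 further: parasites exposed to compound for two days anaerobically before the ATP read; on the % scale 0 is the no-effect control and ±100 the full control effect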
#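 Luminescence from cellular ATP indicates surviving trophozoites (100 cells/well) following 48 hrs anaerobic compound treatment at 37 deg C; signal develops 15-30 min at room temperature.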
# Tb PFK inh = inhibitors of T. brucei phosphofructokinase; O15648; T. brucei PFK, ADP-Glo luminescence; Potency, µM (titrated, usually from 57.5 µM), without a hit: at the highest dose activity, negative = inhibition, hits mostly inhibitors; 330,000 tested, 0.17% active; AID 485367;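 further: potency means the concentration at half of the fitted maximal effect; 0% = uninhibited 1x PFK enzyme wells and -100% = no-enzyme wells; nearly all actives have a fitted effect of over 60% in size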
# Target sequence (O15648 whole entry, looked up): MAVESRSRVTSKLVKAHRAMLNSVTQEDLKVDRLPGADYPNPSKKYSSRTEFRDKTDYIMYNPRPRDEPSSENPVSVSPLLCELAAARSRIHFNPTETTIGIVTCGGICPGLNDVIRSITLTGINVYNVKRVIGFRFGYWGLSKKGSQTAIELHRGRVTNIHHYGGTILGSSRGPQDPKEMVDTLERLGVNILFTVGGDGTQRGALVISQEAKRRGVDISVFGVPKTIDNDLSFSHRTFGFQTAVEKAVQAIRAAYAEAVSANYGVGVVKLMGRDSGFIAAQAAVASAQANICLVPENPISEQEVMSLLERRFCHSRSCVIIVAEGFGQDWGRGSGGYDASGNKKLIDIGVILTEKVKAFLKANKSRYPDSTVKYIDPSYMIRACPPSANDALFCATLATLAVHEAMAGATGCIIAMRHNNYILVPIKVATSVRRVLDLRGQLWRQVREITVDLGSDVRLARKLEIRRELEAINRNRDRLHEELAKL
#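 Compounds were pin-transferred as a titration series up to 57 uM into substrate buffer (0.5 mM F6P, 0.1 mM ATP, pH 8.0), then 1.25 nM PFK was added and reactions ran 45 min before ADP-Glo detection.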
# GALK inhibitor = blocks human galactokinase activity; P51570; Purified GALK, Kinase-Glo residual ATP luminescence; Potency, µM (series often up to 57.5 µM), for the others: at the top dose activity change, negative = inhibition, most hits filed as inhibitors; 270,000 tested, 0.007% active; further: potency means the concentration at half of the fitted maximal effect; on the % scale 0 is the no-effect control and ±100 the full control effect
# Target sequence (P51570 whole entry, looked up): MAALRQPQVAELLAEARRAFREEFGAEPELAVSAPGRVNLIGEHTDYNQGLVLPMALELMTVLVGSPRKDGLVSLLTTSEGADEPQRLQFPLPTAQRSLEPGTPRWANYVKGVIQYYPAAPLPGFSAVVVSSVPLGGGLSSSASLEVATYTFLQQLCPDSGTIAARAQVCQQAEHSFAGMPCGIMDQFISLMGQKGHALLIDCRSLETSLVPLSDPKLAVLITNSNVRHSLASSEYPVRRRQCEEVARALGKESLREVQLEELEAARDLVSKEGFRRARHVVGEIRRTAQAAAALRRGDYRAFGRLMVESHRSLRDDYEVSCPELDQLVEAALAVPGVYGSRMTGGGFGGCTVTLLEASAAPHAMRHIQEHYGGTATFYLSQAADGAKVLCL
#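 The enzyme phosphorylates galactose (100 uM) using ATP (35 uM); inhibition is detected as higher residual ATP, quantified by bioluminescence after 1 h reaction at room temperature, pH 8.0.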
# MLL CXXC-DNA inh = inhibitors of human MLL CXXC domain-DNA interaction; 290,000 tested, 0.037% active; AID 2662; MLL-CXXC / FITC-HOXA9 DNA fluorescence polarization; Q03164; Potency, µM (doses to about 115 µM), for the others: at the top dose activity change, negative = inhibition, hits mostly inhibitors; active means well fitted inhibition curve with a large enough effect in the polarisation, with a control signal flat, not every such curve was filed as active; inconclusive means small, poorly fitted or top-dose-only effect, or effect the other way, or a change in a side signal; inactive means no such curve, though single readings can be large or run the other way; the % refers to the polarisation; further: potency means the concentration at half of the fitted maximal effect
#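 Fluorescence polarization: 7 uM MLL-CXXC (stock) preincubated 5 min with compounds, then 50 nM fluorescein-HOX-A9 DNA (stock) added; 30 min ambient. Buffer 50 mM Tris-HCl pH 7.5, 50 mM NaCl, 1 mM DTT, 0.05% BSA.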
# Coupling enz = inhibits coupling enzyme system, counter-screen for aldolase hits | coupling enzyme system counterscreen, AmpLite Red fluorescence | activity change, negative = inhibition, % at 58.2 µM, hits read low | 290,000 tested, 0.67% active; in the data active means activity change below about -30%; further: on the % scale 0 is the no-effect control and ±100 the full control effect
#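 Compounds tested against the coupling enzymes alone at 57.5 uM final; readout was AmpLite Red fluorescence (525/598 nm) after 20 min at RT.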
# AT treatment = potential ataxia-telangiectasia treatments restoring KAP-1 phosphorylation | […] A-T fibroblasts, KAP-1 phosphorylation AlphaLISA; neocarzinostatin DNA damage 30 min before lysis | Potency, µM (highest dose often 57.5 µM), for inactives: top-dose activation, hits mostly activators | 320,000 tested, 0.19% active | AID 485349; further: potency means the concentration at half of the fitted maximal effect; % of control where 0% means no effect; nearly all actives have a fitted effect of over 45% in size
#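 ATM-like activity read as KAP-1 phosphorylation via AlphaLISA donor/acceptor antibody pairs after lysis and 6 hr at 25C. Cells were ATM-null patient fibroblasts ([…], hTERT), dosed 60 min, then exposed to the DSB inducer NCS for 30 min.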
# * = called active by the depositor; ? = inconclusive; . = not tested or not shown; & = joins results of further samples; ! = a repeat was not active; [ ] = dose if it differs, or a comment. Unless noted, the call rests on the fitted dose curve; in most records, active means well fitted curve in the direction sought with a large enough effect; inconclusive means small, poorly fitted or top-dose-only effect, or another doubt; inactive means no such curve, though single readings can be large; an effect the other way counts as inactive or inconclusive. Not all compounds are listed; count on the stated rates, not on these rows.
Compound | TCR act | BCR signal inh | Giardia kill | Tb PFK inh | GALK inhibitor | MLL CXXC-DNA inh | Coupling enz | AT treatment
CN(C)CCCN1c2ccccc2Sc2ccc(Cl)cc21 | 3%&56% | ? | -4&-19 | 1%&5% | -3%&-1% | 2%&13%&-7% | -3&-1&-5&-2 | -11%&-6%
CN(C)N=O | 6% | -4% | ? | 1% | . | . | . | 7%
CCN1C[C@]2(COC)C(O)C[C@H](OC)[C@@]34C5C[C@]6(O)C(OC)C(O)[C@](OC(C)=O)(C5C6OC(=O)c5ccccc5)C(C(OC)C23)C14 (stereo not given in full) | . | . | . | . | . | . | 0 | .
CCCCCCC(=O)c1c(O)n(-c2ccc(OC)cc2)c(=O)[nH]c1=O (tested in a mixture with another compound) | 0% | 1% | -22 | -1% | -5% | 14% | 2 | 5%
COc1ccc(-[n+]2c(-c3ccccc3)cc(-c3ccc(C)cc3)cc2-c2ccccc2)cc1 | 6% | ? | -12 | 2% | -1% | 62%[activator] | 2 | -3%
Nc1ncnc2c1ncn2[C@@H]1O[C@H](COP(=O)(O)OP(=O)(O)OP(=O)(O)O)[C@@H](O)[C@H]1O | 0% | ? | -5 | ? | . | -2% | . | 13%
CCC(COC(=O)c1cc(OC)c(OC)c(OC)c1)(c1ccccc1)N(C)C (stereo not given) | 3%&-2%&5% | ? | -11&-20&3 | ? | 1% | 4%&-1% | -1&-1 | 1%&-8%
CCOC(=O)c1cc(CC)sc1/N=C/c1c(O)[nH]c(=S)[nH]c1=O | -5%[46.1 µM] | 0% | 21 | -4% | 0% | ? | -88* | -9%
CN1CCN(Cc2nnc3n2-c2ccc(Cl)cc2C(c2ccccc2)=NC3)CC1 | 1%[46.1 µM] | 4% | 0 | -1% | 2% | 11% | 0 | 7%
Fc1ccc([C@@H]2CCNC[C@H]2COc2ccc3c(c2)OCO3)cc1 | -6%&-8%&2% | ? | 2&-18&14 | 0%&3% | 0% | 12%&-7% | 1&2 | 1%
Cc1o[nH]c(=O)c1CC(N)C(=O)O (stereo not given) | . | . | . | . | . | 3% | . | .
COc1ccc2c3c1OC1C(=O)CC[C@@]4(O)[C@@H](C2)N(C)CC[C@]314 (stereo not given in full) | 5% | ? | -1 | 1% | . | . | . | 4%
CC[C@H]1C2C[C@H]3[C@@H]4N(C)c5ccccc5C45C[C@H](C2[C@H]5O)N3[C@@H]1O (stereo not given in full) | -3% | -10% | 9 | -1% | . | . | . | -1%
OCCN(CCO)CCO | . | . | . | . | . | . | -3&-1 | .
CN1CC[C@]23c4c5ccc(O)c4OC2[C@H](O)C=CC3[C@H]1C5 (stereo not given in full) | 5% | 0% | ? | 1% | . | . | . | 1%
CN1CCN(Cc2ccc(Br)s2)CC1 | 4% | -4% | 2 | -4% | 3% | 16% | 0 | .
C[C@]1(O)CC[C@H]2[C@@H]3CCC4=CC(=O)CC[C@]4(C)[C@@]3(F)[C@@H](O)C[C@@]21C | -8% | . | 22 | . | . | . | . | .
Cc1ccc(-c2nc3ccc(C)cn3c2CC(=O)N(C)C)cc1 | -5% | . | -5 | . | . | 1% | -13 | .
Oc1c(Br)c(Br)c(Br)c(Br)c1Br | -2% | ? | 24 | -24% | . | . | . | 4%
CC[C@@H]1[C@@H]2C[C@H]3[C@H]4N(C)c5ccccc5[C@@]45C[C@@H]([C@@H]2[C@@H]5O)N3[C@H]1O | . | . | . | . | . | 1%[51.4 µM] | 0 | .
c1ccc2cc(CC3=NCCN3)ccc2c1 | -3% | 0% | 20 | -7% | 2% | -1%&-4% | 0 | 1%
CC1CCC2C(C)C(=O)OC3O[C@]4(C)CCC1[C@@]32OO4 (stereo not given in full) | . | . | . | . | . | . | 3 | .
C[N+](C)(C)CCOC(=O)CBr | -4% | -11% | -2 | -12% | . | 1% | . | -2%
Cc1cccc(CNCCc2c[nH]c3ccccc23)c1 | -5% | ? | -19 | -7% | 8% | -4% | 0 | 1%
CCn1cc(C(=O)O)c(=O)c2ccc(C)nc21 | 1% | 5%&4% | 6 | -4%&2% | -1%&-2% | 3%&-16%&3% | 4&3&-3&0&0 | 9%&5%

# 3 entries from above, with values under each structure.
# Value order: TCR act | BCR signal inh | Giardia kill | Tb PFK inh | GALK inhibitor | MLL CXXC-DNA inh | Coupling enz | AT treatment
- CN(C)CCCN1c2ccccc2Sc2ccc(Cl)cc21
→ 3%&56% | ? | -4&-19 | 1%&5% | -3%&-1% | 2%&13%&-7% | -3&-1&-5&-2 | -11%&-6%
- CN(C)N=O
→ 6% | -4% | ? | 1% | . | . | . | 7%
- CCN1C[C@]2(COC)C(O)C[C@H](OC)[C@@]34C5C[C@]6(O)C(OC)C(O)[C@](OC(C)=O)(C5C6OC(=O)c5ccccc5)C(C(OC)C23)C14 (stereo not given in full)
→ . | . | . | . | . | . | 0 | .

# Some of the entries above, reformatted.
SMILES: CN1CC[C@]23c4c5ccc(O)c4OC2[C@H](O)C=CC3[C@H]1C5 (stereo not given in full)
  TCR act = 5%
  BCR signal inh = 0%
  Giardia kill = ?
  Tb PFK inh = 1%
  GALK inhibitor = .
  MLL CXXC-DNA inh = .
  Coupling enz = .
  AT treatment = 1%

SMILES: CN1CCN(Cc2ccc(Br)s2)CC1
  TCR act = 4%
  BCR signal inh = -4%
  Giardia kill = 2
  Tb PFK inh = -4%
  GALK inhibitor = 3%
  MLL CXXC-DNA inh = 16%
  Coupling enz = 0
  AT treatment = .

SMILES: C[C@]1(O)CC[C@H]2[C@@H]3CCC4=CC(=O)CC[C@]4(C)[C@@]3(F)[C@@H](O)C[C@@]21C
  TCR act = -8%
  BCR signal inh = .
  Giardia kill = 22
  Tb PFK inh = .
  GALK inhibitor = .
  MLL CXXC-DNA inh = .
  Coupling enz = .
  AT treatment = .

# Rewritten with two lines to a compound: 3 of the compounds above
# Values run as follows: TCR act	BCR signal inh	Giardia kill	Tb PFK inh	GALK inhibitor	MLL CXXC-DNA inh	Coupling enz	AT treatment
- CN1CCN(Cc2ccc(Br)s2)CC1
  4%	-4%	2	-4%	3%	16%	0	.
- COc1ccc2c3c1OC1C(=O)CC[C@@]4(O)[C@@H](C2)N(C)CC[C@]314 (stereo not given in full)
  5%	?	-1	1%	.	.	.	4%
- CCC(COC(=O)c1cc(OC)c(OC)c(OC)c1)(c1ccccc1)N(C)C (stereo not given)
  3%&-2%&5%	?	-11&-20&3	?	1%	4%&-1%	-1&-1	1%&-8%

# Next section.
Compound | TCR act | BCR signal inh | Giardia kill | Tb PFK inh | GALK inhibitor | MLL CXXC-DNA inh | Coupling enz | AT treatment
COCCN(CCOC)C(=O)CCn1c(=O)oc2ccccc21 | 0%[46.1 µM] | ? | -8 | 2% | 0% | -2% | 2 | 0%
CCN(CC)c1ccc(/C=N/c2sc3c(c2C#N)C2CCN3CC2)c(O)c1 | -3% | 1% | 11 | 0% | 2% | ? | -4 | -4%
C[C@]12CCC3C(CC[C@@H]4C[C@H](O)CC[C@]34C)C1CCC2=O (stereo not given in full) | 0% | 0% | -5 | 0% | . | . | . | 9%
C[C@]12CCC(=O)C=C1C=C[C@@H]1[C@@H]2CC[C@@]2(C)[C@H]1CC[C@@]2(O)CCC(=O)O | -6% | -7% | -5 | -1% | . | . | . | -2%
COC(=O)C1=C(C)NC(C)=C(C(=O)OC)C1c1ccccc1[N+](=O)[O-] | -8% | ? | 3 | 13% | 6% | ? | -78*! | -2%
C[C@]12CCC3[C@@H](CC[C@@H]4C[C@H](O)CC[C@]34C)[C@@H]1CCC2=O (stereo not given in full) | 0% | -7% | 47[activator] | -1% | . | . | . | 3%
C[C@]12CCC3C(CC[C@@H]4CC(=O)CC[C@]34C)C1CC[C@@H]2O (stereo not given in full) | 0% | -5% | -14 | 1% | . | . | . | 10%
CN1CCc2cc(O)cc3c2C1Cc1ccc(O)c(O)c1-3 (stereo not given) | . | . | . | . | . | ? | . | .
OCC[n+]1c2ccccc2nc2ccc(N3CCOCC3)cc21 | 4% | ? | 1 | ? | 21% | 5% | -24 | -38%[inhibitor]
CN1[C@@H]2CC(OC(=O)[C@H](CO)c3ccccc3)C[C@H]1[C@@H]1O[C@@H]12 (stereo not given in full) | 10%&-11%&43%&-10% | -1%&0%&-4% | 13&15&-20&-25 | 2%&-10%&0% | -3%&-2% | 1%&11% | 0&0 | -4%&2%&-3%
c1ccc2c(c1)Nc1ccccc1S2 | 15% | -16% | 10 | 0% | -2% | 0%&14% | 1 | 7%
C1CCC2CCCCC2C1 (stereo not given) | 2% | -3% | ? | -5% | . | . | . | 3%
CN(C)CC1Oc2ccccc2OC1(O)c1ccccc1 (stereo not given) | 0% | ? | 10 | 0% | -1% | 4% | 1 | -12%

# Results in TCR act, MLL CXXC-DNA inh and BCR signal inh, for 3 of the compounds above:
SMILES | TCR act | MLL CXXC-DNA inh | BCR signal inh
CN1CCc2cc(O)cc3c2C1Cc1ccc(O)c(O)c1-3 (stereo not given) | . | ? | .
C[C@]12CCC3[C@@H](CC[C@@H]4C[C@H](O)CC[C@]34C)[C@@H]1CCC2=O (stereo not given in full) | 0% | . | -7%
OCC[n+]1c2ccccc2nc2ccc(N3CCOCC3)cc21 | 4% | 5% | ?
